Yeast UUG start: yeast start codon fidelity modulation; activity score, % at 18.7 µM; AID 602363; actives 0.13% (n = 350,000); S. cerevisiae UUG-firefly luciferase reporter, luminescence/redox ratio;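 active = replicate mean at a twofold rise or more, about +100% in these data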;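 also: firefly luciferase made from a UUG start codon reports start codon fidelity; reporter light over untreated wells divided by growth signal over untreated wells; some hits fall short of that in this replicate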
Rce1 inh: yeast Ras-converting enzyme inhibition. calls only. actives 0.27% (n = 290,000). Q03530. yeast membranes, quenched prenylated peptide cleavage fluorescence. AID 2563;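 active = fall in fluorescence gain of 50% or more versus controls, with final raw signal at or below 3038400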;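 also: plate controls were neutral control wells for no effect and wells lacking membranes for full effect; tested at 10 µM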
Target sequence (Q03530 whole entry, looked up): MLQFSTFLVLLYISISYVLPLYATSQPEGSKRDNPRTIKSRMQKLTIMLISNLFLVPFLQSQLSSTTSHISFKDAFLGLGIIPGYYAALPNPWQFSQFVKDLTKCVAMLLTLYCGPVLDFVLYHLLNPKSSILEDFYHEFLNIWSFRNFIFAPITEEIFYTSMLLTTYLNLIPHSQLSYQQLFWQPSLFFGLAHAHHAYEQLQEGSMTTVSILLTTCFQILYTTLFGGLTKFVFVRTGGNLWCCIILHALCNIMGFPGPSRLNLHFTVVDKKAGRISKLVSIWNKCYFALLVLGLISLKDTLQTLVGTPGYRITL
PABP polyA inh: blocks human PABP binding to poly(A) RNA | fluorescence polarization | inhibition, % at 35 µM | actives 1% (n = 290,000) | AID 2014;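 active = 50% or more with normal probe brightness, or confirmed in later tests; about a fifth of its hits are not listed in these tables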;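 also: calls also rest on retests at 20 µM and on dose response follow-up; controls were probe without protein and protein plus probe with vehicle; some compounds called inactive have numbers as strong as hits; many hits fall short of the cut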
eIF4H inh: inhibitors of RNA binding by human eIF4H; Q15056; eIF4H fluorescence polarization binding assay; inhibition, % at 35 µM; actives 0.94% (n = 290,000); AID 2012;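 active = 50% or more with normal probe brightness, or confirmed in later tests; about a fifth of its hits are not listed in these tables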;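 also: calls also rest on retests at 20 µM and on dose response follow-up; 0% = protein and probe with vehicle and 100% = probe without protein; strong numbers were not always called active; many hits fall short of the cut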
HIV Env fusion: inhibitors of HIV Env-mediated cell fusion | inhibition, % at 12.3 µM | actives 1.1% (n = 360,000) | AID 651610 | HeLa-JRFL Env/CEM21 cell fusion, luciferase;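 active = mean replicate inhibition score of at least 50 and every replicate individually at or above 50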;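 also: 0% = plate neutral controls and 100% = maraviroc near 300 nM; one replicate is shown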
MT1-MMP act inh: MT1-MMP (human) activation inhibition | P50281 | HT1080 RFP-PRO-GFP cells, GFP/RFP ratio fluorescence, overnight; percent of plate control window, DMSO zero | GFP/RFP ratio change, % at 20 µM | actives 0.061% (n = 360,000) | AID 651647;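 active = GFP/RFP ratio change of at least 30% with cell ATP level not reduced by more than half and red fluorescence within 50% of control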; also: strong numbers were not always called active
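Assay system: RFP-PRO-GFP reporter HT1080 cells; read-out basis: GFP/RFP fluorescence ratio; benchmarks: DMSO wells and RFP-L50D-GFP cells; doses: 20 µM single dose, 1% DMSO; schedule: overnight cell settling, then overnight compound exposure, 37 °C, 5% CO2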
CSC inhib: blocks cancer stem cells; AID 2717; actives 1.1% (n = 300,000); inhibition, % at 7.5 µM; cancer stem cell-like cells viability, luminescence;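 active = mean at 75% or more and at least half the replicates too; tested in HMLE shEcad cells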;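 also: 0% = median of negative and 100% = median of positive control wells; the first replicate is given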
eIF4H inh retest: further read-out of eIF4H inh, marked with its call; inhibition, %; compound at 20 µM; confirmation average;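 mean of two retest wells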
PABP polyA inh retest: second read-out of PABP polyA inh, no call of its own (marks repeat the call); inhibition, %; compound at 20 µM; confirmation repeats;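 mean of two retest wells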
MT1-MMP act inh RFP: recorded beside MT1-MMP act inh, whose call it bears; RFP signal change, %; measured here: RFP expression control read;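 0 = vehicle wells; hits needed this value within 50% of zero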
An asterisk follows results filed as active; i = inactive; x = not tested or not shown. Only part of the results is shown, so the mix of outcomes need not match the whole.

SMILES	Yeast UUG start	Rce1 inh	PABP polyA inh	eIF4H inh	HIV Env fusion	MT1-MMP act inh	MT1-MMP act inh RFP	CSC inhib	others
CCC(C(=O)OC)n1cnc2c(oc3ccccc32)c1=O (stereo not given)	-15	i	10	-17	-9	-3	1	-11
COc1ccc(/C=C/C(=O)NCC(=O)n2nc(C)cc2C)cc1	-9	i	-1	-9	12	3	1	-2
NC(=O)c1nsc(C(=O)N(c2ccccc2)C(C(=O)NCC2CCCO2)c2cccs2)c1N (stereo not given)	x	i	2	-14	2	1	3	-1
O=C(NCC(c1ccco1)N1CCOCC1)c1ccc([N+](=O)[O-])cc1 (stereo not given)	x	i	-8	-8	1	-2	-3	-10
CCOC(=O)Cc1csc(NC(=O)c2sc3nc4ccc(CC)cc4cc3c2N)n1	-18	i	10	-2	x	-74	6	-19
C#CCOCCOCCOCCNc1nc(N2CCN(C(=O)[C@H](CCCCN)n3cc(CN)nn3)CC2)nc(N2CCN(C(=O)[C@H](CCC(=O)O)n3cc([C@@H](N)CCCCN)nn3)CC2)n1	20	x	x	x	-7	0	2	-5
CC1CCN(S(=O)(=O)c2ccc(NC(=O)CSc3ncccc3C(=O)O)cc2)CC1	-17	i	13	-9	x	1	7	-2
CC1CN(C(=O)c2ccc(S(=O)(=O)Nc3ccccc3F)cc2)CC(C)O1 (stereo not given)	-10	i	x	x	-5	-4	-6	8
Cc1ccc(C(=O)NCCN2C3=NC[C@H](C)N3C[C@H]2Cc2ccc(O)cc2)cc1Br	-3	i	-1	3	-39	-1	-1	9
CCOc1ccc(OCCOc2ccc(/C=C/C(=O)O)cc2OCC)cc1	-9	i	5	-11	-2	2	-1	2
CC(C)(C)OC(=O)COc1cc(OCC(=O)OC(C)(C)C)c2c(=O)cc(-c3ccccc3)oc2c1	-15	i	6	-12	x	-13	-15	8
CCCSc1ccc(C(=O)Nc2ccc(Cl)cc2)cn1	x	i	3	-10	35	4	-13	-24
CN(C)c1ccc(/C=N/NC2=NS(=O)(=O)c3ccccc32)cc1	-20	i	-9	-12	-14	-3	4	4
O=C(NCC(c1ccco1)N1CCCCC1)c1ccc2c(c1)S(=O)(=O)c1ccccc1C2=O (stereo not given)	x	i	-1	20	13	-3	3	0
CCN(CC)S(=O)(=O)c1ccc(OC)c(NC(=O)Cn2cnc3c2c(=O)n(C)c(=O)n3C)c1	x	i	-1	-3	4	1	4	-10
Cc1ccc2c(c1)nnn2C1CCN(S(C)(=O)=O)CC1	x	i	-5	-5	1	2	5	-18
C=CCn1c(O)c(/C=C2\C=NN=C2c2ccccc2)sc1=S	x	i	-8	-10	14	-2	-6	36
Cc1ccc(NC(=O)COC(=O)C2=COCCO2)c([N+](=O)[O-])c1	x	i	0	7	-18	3	1	-14
COc1ccc(/C=C/C(=O)Nc2nc(C)c(C(=O)N(C)C)s2)cc1	x	i	1	7	23	-4	-3	-6
CCCOc1ccc(/C=C/C(=O)O)cc1OC	-2	i	-3	2	7	0	2	-15
Cc1ccc(S(=O)(=O)NCc2c(-c3ccccc3)noc2C)cc1	x	i	2	-12	30	11	2	-19
COCCCN1Cc2cccc(C(=O)O)c2C1=O	-18	i	0	-7	-5	6	6	-4
CCN(CC)CCNc1nc(-c2ccccc2)nnc1C(F)(F)F	5	i	4	-8	x	3	9	-7
Cc1csc(NC(=O)c2ccc(-c3ccc(Cl)cc3Cl)o2)n1	x	i	-8	-7	-7	1	-3	10
N#Cc1c(N)n(-c2cccc(O)c2)c2nc3ccccc3nc12	5	i	26	28	-8	4	3	12
CC(NC(=O)c1ccco1)c1ccc2c(c1)OCO2 (stereo not given)	2	i	3	-4	-3	0	2	-8
CCCCNC(=O)c1ccc2c(c1)N(CC)C(=O)CS2	-13	i	5	12	-13	3	3	-4
CC(CC1C(C#N)=C(N)OC2=C1C(=O)CCC2)c1ccccc1 (stereo not given)	x	i	3	3	19	-7	-1	-15
Cc1cc(C(=O)NN=C2C3CC4CC(C3)CC2C4)c2ccccc2n1	-2	x	0	-1	-6	-2	3	-9
CCOc1ccc2nc(NC(=O)Nc3ccccc3)sc2c1	x	i	-4	-4	-339	3	-2	0

For convenience, part of the list above.
SMILES	Yeast UUG start	Rce1 inh	PABP polyA inh	eIF4H inh	HIV Env fusion	MT1-MMP act inh	MT1-MMP act inh RFP	CSC inhib	others
CCCSc1ccc(C(=O)Nc2ccc(Cl)cc2)cn1	x	i	3	-10	35	4	-13	-24
CN(C)c1ccc(/C=N/NC2=NS(=O)(=O)c3ccccc32)cc1	-20	i	-9	-12	-14	-3	4	4
O=C(NCC(c1ccco1)N1CCCCC1)c1ccc2c(c1)S(=O)(=O)c1ccccc1C2=O (stereo not given)	x	i	-1	20	13	-3	3	0
CCN(CC)S(=O)(=O)c1ccc(OC)c(NC(=O)Cn2cnc3c2c(=O)n(C)c(=O)n3C)c1	x	i	-1	-3	4	1	4	-10
Cc1ccc2c(c1)nnn2C1CCN(S(C)(=O)=O)CC1	x	i	-5	-5	1	2	5	-18
C=CCn1c(O)c(/C=C2\C=NN=C2c2ccccc2)sc1=S	x	i	-8	-10	14	-2	-6	36
Cc1ccc(NC(=O)COC(=O)C2=COCCO2)c([N+](=O)[O-])c1	x	i	0	7	-18	3	1	-14
COc1ccc(/C=C/C(=O)Nc2nc(C)c(C(=O)N(C)C)s2)cc1	x	i	1	7	23	-4	-3	-6
CCCOc1ccc(/C=C/C(=O)O)cc1OC	-2	i	-3	2	7	0	2	-15
Cc1ccc(S(=O)(=O)NCc2c(-c3ccccc3)noc2C)cc1	x	i	2	-12	30	11	2	-19
COCCCN1Cc2cccc(C(=O)O)c2C1=O	-18	i	0	-7	-5	6	6	-4
CCN(CC)CCNc1nc(-c2ccccc2)nnc1C(F)(F)F	5	i	4	-8	x	3	9	-7
Cc1csc(NC(=O)c2ccc(-c3ccc(Cl)cc3Cl)o2)n1	x	i	-8	-7	-7	1	-3	10
N#Cc1c(N)n(-c2cccc(O)c2)c2nc3ccccc3nc12	5	i	26	28	-8	4	3	12
CC(NC(=O)c1ccco1)c1ccc2c(c1)OCO2 (stereo not given)	2	i	3	-4	-3	0	2	-8
CCCCNC(=O)c1ccc2c(c1)N(CC)C(=O)CS2	-13	i	5	12	-13	3	3	-4
CC(CC1C(C#N)=C(N)OC2=C1C(=O)CCC2)c1ccccc1 (stereo not given)	x	i	3	3	19	-7	-1	-15

Carrying on:
SMILES	Yeast UUG start	Rce1 inh	PABP polyA inh	eIF4H inh	HIV Env fusion	MT1-MMP act inh	MT1-MMP act inh RFP	CSC inhib	others
CCOc1ccc(C(=O)N2CCCC2C(=O)O)cc1 (stereo not given)	-5	i	-1	-8	x	2	4	-3
COc1ccc(N2CCN(CC(=O)NC(=O)NC(C)(C)C)CC2)cc1	x	i	-5	9	-13	1	3	-4
CC(NC(=O)COc1ccc(N(C)S(=O)(=O)c2ccccc2)cc1)c1ccccc1 (stereo not given)	-3	i	-2	8	24	2	-3	1
COc1cc(C(=O)NC(=S)Nc2ccccc2N2CCCC2)cc(OC)c1OC	-20	i	20	13	-15	17	9	-4
O=C(N/N=C/c1c(O)n(-c2ccc(Cl)cn2)c(=O)c2ccccc12)C1CC1	x	i	6	-2	-22	1	4	0
Cc1ccc(C)c(NC(=O)C2Cc3ccccc3CN2C(=O)OCc2ccccc2)c1 (stereo not given)	-7	i	1	7	12	-8	-3	-7
COC(=O)c1cc(OC)c(OC)cc1NC(=O)c1ccc(Br)o1	-3	i	x	x	x	4	1	-4
COc1ccc(Cc2nc3ccccc3n2CC(=O)N/N=C/c2ccc(C)cc2O)cc1OC	-18	i	-3	-6	4	0	4	34
CCOc1ccc(N(CC(=O)Nc2cc(C)ccc2C)S(=O)(=O)c2c(C)[nH]c(=O)[nH]c2=O)cc1	7	i	8	4	-6	9	2	-15
COC(=O)C(C)Oc1ccc2c3c(c(=O)oc2c1)CCCCC3 (stereo not given)	0	i	-1	-10	-18	-1	0	-7
CC(C)CCOC(=O)C[N+](C)(C)CCOC1CC2CCC1(C)C2(C)C (stereo not given)	x	i	-2	-8	76*	-21	-21	0
CCN(CC)S(=O)(=O)c1cccc(-c2nnc(SCc3nc4ccccc4s3)o2)c1	x	i	32	81	x	-4	-24	-14	eIF4H inh retest=7;PABP polyA inh retest=2
CNC(=O)c1ccsc1NC(=O)CCS(=O)(=O)c1ccc(F)cc1	1	i	x	x	-11	3	-4	-6
Cc1cc(/C=N/Nc2ccc([N+](=O)[O-])cn2)c(C)n1-c1cccc(C(=O)O)c1	x	i	50*	54*	8	-1	-1	3
COc1cccc(CN(C)S(=O)(=O)c2cccs2)c1	-6	i	-10	-8	8	0	2	x
O=C(NCCc1ccccc1)c1c(F)cccc1F	-19	i	1	-6	-29	2	1	-1
CCCCOc1ccc(/C=C(\C(=O)O)c2ccc(S(=O)(=O)N3CCCC3)s2)cc1	-9	x	x	x	-2	-9	-2	25
CC1CCCN(C(=O)CSc2nnc(-c3ccc(O)cc3)o2)C1 (stereo not given)	-14	i	6	6	-13	-1	-3	2
CO/N=C/C(=N\Nc1ccc(C)cc1)C(=O)c1ccc(OC)cc1	-14	i	1	-12	x	-8	-17	73
c1ccc(-c2cccs2)nc1	x	i	-6	2	-14	0	-1	-6
O=S(=O)(NCC1CCN(S(=O)(=O)c2ccccc2)CC1)c1ccccc1	3	i	4	-4	-62	-3	-2	2
CCCc1[nH]nc2c1C(c1ccc(Br)s1)C(C#N)=C(N)O2 (stereo not given)	x	i	-5	-1	x	2	-6	44
O=C(CSc1nnnn1-c1ccccc1)NCc1ccco1	-5	i	7	11	x	5	5	-15
Cc1ccc2cccc(NC(=S)NC(=O)c3ccccc3)c2n1	-5	i	9	-8	-74	-7	7	6
COc1cc(/C=N/N2CCN(c3ccc(Cl)cc3)CC2)cc(OC)c1OC(C)=O	5	i	3	13	27	6	2	19
O=C(CCC(=O)NNC(=O)c1ccc([N+](=O)[O-])cc1)NCc1ccccc1	-24	i	5	-6	16	2	3	-1
S=C(NCCc1ccncc1)Nc1ccccc1	x	i	-4	-1	11	1	-2	-4
O=C(NC(=S)NCCN1CCOCC1)c1ccccc1Br	-18	i	-11	0	-3	-7	1	-18
CCOc1ccccc1NC(=O)CCNC(=O)N1CC(=O)Nc2ccccc21	4	x	x	x	5	-2	0	x
CCOC(=O)C1=C(COC(=O)c2cc(OC)c(OC)c(OC)c2)NC(=O)NC1C (stereo not given)	x	i	x	x	-9	-2	0	-19
Cc1ccc(-c2c[n+](=O)c3c(n2[O-])CCC3)cc1	x	i	-10	-5	-13	-3	2	-12
Cc1cc(=O)[nH]c2c1c(-c1ccccc1)nn2C	-7	i	6	-4	5	3	4	-5
COCCn1nnnc1C(c1ccc(O)c(OC)c1)N1CCc2ccccc2C1 (stereo not given)	-18	i	13	8	x	1	4	-16
OCCC1CN(Cc2cccn2-c2ncccn2)CCN1CCc1ccccc1 (stereo not given)	-20	i	-8	6	-4	0	0	-2
CCOc1ccc(S(=O)(=O)NC(C)C(=O)NC2CCCC2)cc1 (stereo not given)	-9	i	2	2	x	3	5	-9
Cc1cc(C)c(C)c(S(=O)(=O)Nc2ccc(C(=O)N3CCCC3)cc2)c1C	-10	i	0	-4	6	0	-2	2

From PubChem BioAssay
